Bioassay records from PubChem BioAssay.
Mtb H37Rv – Confirmatory growth inhibition assay against Mycobacterium tuberculosis H37Rv, potency (AID 1949); 100,000 compounds, 1.6% hits; inhibition, % at 10 µg/mL, or IC50 in µg/mL where a hit was titrated; most inactive calls were filed without a number and no value below 0 was filed;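 active = confirmed in a dose series; inconclusive = about 50% or more but not retested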;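 note: bacteria grown 7 days with compound before Alamar blue readout; 0% = untreated bacteria and 100% = reference antibiotic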
Starred values were filed as active, the others as inactive; i = inactive; ? = inconclusive.

SMILES	Mtb H37Rv
CCOc1ccccc1NC(=O)CN(c1cc(Cl)ccc1OC)S(=O)(=O)c1ccc(C)c([N+](=O)[O-])c1	4%
O=C(c1ccc2c(c1)OCCO2)N1CCN(Cc2ccc3c(c2)OCO3)CC1	i
CCC(Oc1ccccc1)C(=O)Nc1ccc(C)cc1C (stereo not drawn)	i
COC(=O)c1ccc(NC(=S)NCc2cccs2)cc1	i
CCCN(C(=O)c1ccccc1)c1c(C)n(C)n(-c2ccccc2)c1=O	i
O=C(NCCCN1CCOCC1)c1ccccc1Cl	i
CCCn1cnc2sc(C)c(-c3ccc(C)c(C)c3)c2c1=O	3%
COc1ccc(OC)c(CN2CCC(N3CCOCC3)CC2)c1	i
Cc1cccc(OCCOCCN2CC(C)CC(C)C2)c1C (stereo not drawn)	i
CC(C)(C)NC(=O)c1cccc(NC(=O)c2cccc(O)c2)c1	i
CC(=O)c1cccc(NC(=O)c2cncc(Br)c2)c1	i
COc1cccc(-c2cc(C(=O)Nc3cccc(C)n3)c3ccccc3n2)c1	18%
Cc1cc(SC#N)ccc1NC(=O)C12CC3CC(CC(C3)C1)C2	i
CCOC(=O)c1cccc(NC(=O)C2CCCCC2)c1	i
O=C(Nc1ccccc1C(F)(F)F)N1CCCCCC1	i
O=c1c2ccccc2nc(-c2ccco2)n1-c1nc2ccccc2s1	2%
C=CCOc1ccc(CNC2CCCCC2)cc1OC	i
O=C(Nc1nccs1)c1cn(-c2ccccc2)nc1-c1ccc(Cl)s1	48%
Cc1ccccc1-c1cc(C(=O)Nc2ccc(S(N)(=O)=O)cc2)c2ccccc2n1	5%
Cc1cc(C(=O)NCCCn2ccnc2)cs1	i
Cc1cc(NC(=S)NCCc2ccccc2)nn1Cc1ccc(Cl)cc1	i
COCC(=O)N(Cc1ccccc1)C(C)(C)C	i
O=c1c[n+]([O-])c2ccccc2n1OCc1c(F)cccc1F	i
c1ccc2c(CNCc3ccc4c(c3)OCO4)c[nH]c2c1	i
N#C/C(=C/c1cn(CC(=O)N2CCOCC2)c2ccccc12)c1nc2ccccc2[nH]1	i

Gathered by group: those above with fluorine.
SMILES	Mtb H37Rv
O=C(Nc1ccccc1C(F)(F)F)N1CCCCCC1	i
O=c1c[n+]([O-])c2ccccc2n1OCc1c(F)cccc1F	i

(more compounds)
SMILES	Mtb H37Rv
Cc1cccc(C)c1NC(=O)CN(Cc1ccccc1)S(=O)(=O)c1cc(Cl)ccc1Cl	i
CCN(CC)S(=O)(=O)c1cc(C(C)C)ccc1OC	i
COc1cc(OC)cc(C(=O)N2CCN(C(=O)c3cccc(Cl)c3)CC2)c1	i
CC(=O)Nc1ccc(Br)cc1C(=O)OCc1c(Cl)cccc1Cl	i
CN(C)CCSc1nc2cc(Cl)ccc2o1	7%
O=C(COc1ccccc1)N(Cc1ccco1)c1ccc(O)cc1	i
Cc1cc(C(C)(C)C)ccc1OCCOCCn1ccnc1	2.9µg/mL*
CCOC(=O)C1=C(C)NC(=O)NC1c1ccc(OC)c(CN(CC)CC)c1 (stereo not drawn)	3%
O=C1N/C(=N/N=C/c2ccccc2)SC1Cc1ccc(F)cc1 (stereo not drawn)	1%
CC(C)(C)NS(=O)(=O)c1ccc(NC(=O)Cc2ccc(Br)cc2)cc1	44%
Cc1ccc(S(=O)(=O)NCCSc2nnc(Nc3ccccc3)s2)cc1	i
CS(=O)(=O)N(CC(=O)NCCc1ccccc1)c1ccc(I)cc1	i
CC(C)Oc1cccc(C(=O)NC2CCCC2)c1	i
COC(=O)c1ccc(NS(=O)(=O)c2ccc(OC)c(Br)c2)cc1	i
CC1Cc2ccccc2N1C(=O)CSC1=C(C#N)C(c2ccccc2F)CC(=O)N1 (stereo not drawn)	5%
O=[N+]([O-])c1ccc(S(=O)(=O)CC2CSc3ncnc4ncn2c34)cc1 (stereo not drawn)	i
CCCCN1C(=O)C(O)(CC(=O)c2ccco2)c2ccccc21 (stereo not drawn)	i
CCOC(=O)C1=C(C)NC(=O)NC1c1cc(OCC)c(O)c(Br)c1Cl (stereo not drawn)	i
COc1ccc2oc(=O)c(C(=O)N3CCN(c4ccccc4OC)CC3)cc2c1	i
CCOC(=O)c1ccccc1NC(=O)COc1cccc(CC)c1	i
CCOc1ccc(N(C(C)C(=O)Nc2cc(C(=O)OC)ccc2Cl)S(C)(=O)=O)cc1 (stereo not drawn)	i
O=C(Nc1ccc(S(=O)(=O)N2CCCCCC2)cc1)c1ccncc1	i
COc1ccc(-c2cc(C(F)(F)F)c(C#N)c(SCC(=O)Nc3cccnc3)n2)cc1	i
Fc1ccc(Nc2ncc(F)c(Nc3ccc(F)cc3)n2)cc1	1%
COc1ccc(C(=O)Nc2cc(Cl)c(O)c(Cl)c2)cc1OC	i

Reprinted from the part before: 3 entries, then new ones.
SMILES	Mtb H37Rv
COc1ccc(-c2cc(C(F)(F)F)c(C#N)c(SCC(=O)Nc3cccnc3)n2)cc1	i
Fc1ccc(Nc2ncc(F)c(Nc3ccc(F)cc3)n2)cc1	1%
COc1ccc(C(=O)Nc2cc(Cl)c(O)c(Cl)c2)cc1OC	i
COc1ccc(NC(=O)CNCCC2=CCCCC2)cc1	i
COc1ccc(OCCn2c(NC(=O)c3ccco3)nc3ccccc32)cc1	?
Cc1ccc(S(=O)(=O)N2CCN(S(=O)(=O)N3CCCCC3)CC2)cc1	i
Cc1ccc(C2C=C(c3ccc(Cl)cc3)Nc3nc(N4C(=O)C5CC=CCC5C4=O)nn32)cc1 (stereo not drawn)	i
CCCC(=O)Nc1cccc(NC(=S)NC(=O)c2ccc(OCC)cc2)c1	i
O=C(NCc1cccs1)C(=O)Nc1ccccc1Cl	4%
CCN1CCN(C(=O)CN2C(=O)c3cccc4cccc2c34)CC1	i
CCC1(C(=O)c2ccc(Br)cc2)C2c3c(ccc4ccccc34)OC(=O)C21C(=O)OC (stereo not drawn)	i
CCOc1ccc(S(=O)(=O)NCc2ccccn2)cc1	2%
Cc1ccc(NC(=O)CSCc2c(Cl)cccc2Cl)cc1C	i
COc1ccc(OC)c(NC(=O)COc2ccc3c(c2)CCCC3)c1	i
Cc1ccc(C)c(OCC(=O)NCCc2ccccc2)c1C	i
Cc1noc(NS(=O)(=O)c2ccc(NC(=O)CSc3nc4c(cc3C#N)CCC4)cc2)c1C	i
COc1ccc(-c2nc(SCC(=O)Nc3cc(C(F)(F)F)ccc3Cl)n[nH]2)cc1	13%
CCOc1ccc(C(=O)NC(=S)Nc2ccc(NC(=O)CC)cc2)cc1	i
S=C(Nc1ccccc1Cl)N1CCc2ccccc2C1	2%
O=c1[nH]oc2nc(C3CC3)cc(C(F)(F)F)c12	0%
Cc1ccc2ncnc(NC(CC(C)C)C(=O)O)c2c1 (stereo not drawn)	i
Cc1ccc(OCCn2c(=O)oc3ccccc32)cc1	i
Cc1ccccc1C(=O)Nc1cccc(NC(=O)Cn2cnc3c(=O)n(C)c(=O)n(C)c32)c1	i
CSc1ccccc1NC(=O)Cc1ccccc1[N+](=O)[O-]	i
CCOc1ccc(CN2CCC(N3CCN(c4ccccc4)CC3)CC2)cc1	0%
Cc1cc(NC(=O)c2ccc3c(c2)C(=O)N(C)C3=O)no1	i
CN1CCc2c(n(CC(O)CNCc3ccccc3)c3ccccc23)C1=O (stereo not drawn)	3%
CCc1nc2c(cnn2-c2ccccc2)c(=O)n1-c1ccc(C)cc1	i

Some values from above.
Mtb H37Rv, CN1CCc2c(n(CC(O)CNCc3ccccc3)c3ccccc23)C1=O (stereo not drawn) reads 3%
Mtb H37Rv, O=c1[nH]oc2nc(C3CC3)cc(C(F)(F)F)c12 reads 0%

Remaining list, next part
SMILES	Mtb H37Rv
COc1ccc(-c2ccc(S(=O)(=O)N3CCOCC3)cc2)cc1	1%
N#CC1=C(SCC(=O)N2CCOCC2)NC(=O)CC1c1ccccc1F (stereo not drawn)	i
Cc1ccc(S(=O)(=O)N(CC(=O)Nc2cccc([N+](=O)[O-])c2)c2ccc(F)cc2)cc1	8%
Clc1cccc(Nc2nc(-c3cccnc3)cs2)c1	i
Cc1cccc(NC(=S)NCCN2CCN(c3ccc(F)c(Cl)c3)CC2)c1C	2.8µg/mL*
Cc1ccc(C)c(NC(=O)CN(C)S(=O)(=O)c2ccc(Br)cc2)c1	i
Cc1ccc(SCc2cc(=O)[nH]c(N3CCc4ccccc4C3)n2)cc1	i
COc1ccccc1C=C(c1nnnn1-c1ccc(C)cc1)c1nnnn1-c1ccc(C)cc1	2%
O=C(CSc1nnc(CCCOc2ccc(Cl)cc2Cl)o1)NC1CCCCC1	4%
O=C(CN1C(=O)C2C3C=CC(C4CC34)C2C1=O)Nc1ccc(Br)cc1Cl (stereo not drawn)	1%
CC1(C)Cc2c(c(N3CCOCC3)nc3sc4c(N(CCO)Cc5ccccc5)ncnc4c23)CO1	i
COc1cccc(OCC(O)CN2CCN(c3ccccc3OC)CC2)c1 (stereo not drawn)	i
O=C(c1ccc2c(=O)n(CCC3=CCCCC3)c(=S)[nH]c2c1)N1CCc2ccccc2C1	i
CC(C)(C)c1cc(Br)cc(C=O)c1O	i
COC(=O)c1ccccc1NC(=O)C1=C(C)NC(SCC(=O)Nc2ccc(C)cc2)=C(C#N)C1c1ccco1 (stereo not drawn)	3%
CCOc1ccc(CNc2ccc(Br)cc2)cc1OCC	i
Cc1ccc(-n2c3c(c(=O)[nH]c2=O)C(C(F)(F)F)(C(F)(F)F)NC(=O)N3)cc1	i
C=C(C)CSc1nc(CC)nc2sc3c(c12)CC(C)(C)OC3	5%
Cc1ccc(NC(=O)CN2CCCC2)c(Br)c1	i
CSc1ccc(C2C3=C(CCCC3=O)NC3=C2C(=O)CCC3)cc1	i
S=c1[nH]nc(-c2ccncc2)n1-c1cccc(Cl)c1	i
O=C(c1cccnc1)N1CCN(Cc2ccco2)CC1	i
COc1ccc2nc(NC(=O)C3CCCO3)sc2c1 (stereo not drawn)	i
CC(=O)Nc1nnc(SCc2ccc(Cl)c(Cl)c2)s1	2%
O=C(CN1CCC(C(O)(c2ccccc2)c2ccccc2)CC1)Nc1ccccc1	i
SMILES	Mtb H37Rv
O=c1[nH]c(=O)n(Cc2ccccc2)c2c1C(C(F)(F)F)(C(F)(F)F)N=C(c1cccs1)N2	i
COc1ccc(S(=O)(=O)N(CC(=O)Nc2ccc(OC)c(Cl)c2)c2ccccc2OC)cc1	i
CN1C(=O)c2ccc(C(=O)Nc3ccc(Cl)cc3C(=O)O)cc2C1=O	i
CC(C(=O)N1CCOCC1)(c1ccccc1)c1ccccc1	1%
Cc1noc(C)c1C(=O)NCCCN1CCCC1=O	i
CSc1ccc(CN2CCN(C(=O)c3cccnc3)CC2)cc1	i
O=C(c1ccccc1F)N1C(=O)c2cccc3cccc1c23	i
N#CCSc1nc(-c2ccccc2)cs1	i
Cc1ccc(S(=O)(=O)N2CCN(S(=O)(=O)c3cccc([N+](=O)[O-])c3)CC2)c(C)c1C	i
CN1CCN(C(=S)c2ccc(Br)cc2)CC1	i
Cc1cc(N2C(=O)CC(Sc3ccccc3C(=O)O)C2=O)ccc1Cl (stereo not drawn)	i
Cc1ccc([N+](=O)[O-])cc1S(=O)(=O)Nc1ccc(O)c2ccccc12	7%
CCCNC(=S)Nc1cccc(F)c1	i
CCn1c(SCC(=O)Nc2ccc(Cl)cc2C(=O)c2ccccc2)nnc1-c1ccncc1	6%
Cc1sc(NC(=O)c2csc3ccccc23)c(C#N)c1C	3%
COCCSc1ccccc1C(=O)Nc1cccnc1	i
O=C(NCc1ccncc1)C(F)(F)C(F)(F)C(=O)NCc1ccncc1	i
O=C1/C(=C\c2ccc(O)cc2)SC(=S)N1c1ccc(F)cc1	i
CCN1CC2=C(OC(N)=C(C#N)C2c2ccc(OC)cc2)/C(=C\c2ccc(OC)cc2)C1 (stereo not drawn)	i
CCC(Oc1ccccc1)C(=O)Nc1ccc2c(c1)OCO2 (stereo not drawn)	i
CC(C)(C)C(=O)N1CCN(c2ccc([N+](=O)[O-])c(NC3C4CC5CC(C4)CC3C5)c2)CC1 (stereo not drawn)	10%
COc1ccc(-c2nn(-c3ccccc3)cc2C(=O)O)cc1	i
CCc1ccccc1NC(=O)C(=O)NCCOC	1%
Cc1cc(C)c(C#N)c(SCC(=O)Nc2nsc(-c3ccc(Cl)cc3)n2)n1	i
Cc1nc(C(Cl)(Cl)Cl)[nH]c(=O)c1SCCO	1%
SMILES	Mtb H37Rv
Cc1ccc(NC(=S)N2CCN(Cc3ccccc3)CC2)c(C)c1	i
COc1ccc(Cl)cc1-c1nc(-c2ccc(C)cc2)no1	i
CC12CCC(C(=O)NCc3ccccn3)(CC1=O)C2(C)C (stereo not drawn)	i
CC(C)Oc1ccc(Cl)cc1[N+](=O)[O-]	i
CCOC(=O)c1c(-c2ccc(C)cc2C)csc1NC(=O)c1ccccc1F	i
Cc1nc2sccn2c1-c1csc(N)n1	1%
CCCCC(=O)NC(c1ccc(OC)cc1)c1cc(Cl)c2cccnc2c1O (stereo not drawn)	i
COCCNCCOCCOc1ccccc1	i
CCNc1nc(NCC)nc(OCC#N)n1	i
Cc1ccc(-c2nc(NC(=O)c3ccccc3[N+](=O)[O-])sc2C)cc1	i
Cc1cc(C)nc(/N=C2\NC(=O)CC(C(=O)O)N2c2cccc(Cl)c2)n1 (stereo not drawn)	i

In another format: results already given
SMILES,Mtb H37Rv
Cc1ccc(NC(=S)N2CCN(Cc3ccccc3)CC2)c(C)c1,i
COc1ccc(Cl)cc1-c1nc(-c2ccc(C)cc2)no1,i
CC12CCC(C(=O)NCc3ccccn3)(CC1=O)C2(C)C (stereo not drawn),i
CC(C)Oc1ccc(Cl)cc1[N+](=O)[O-],i
CCOC(=O)c1c(-c2ccc(C)cc2C)csc1NC(=O)c1ccccc1F,i

A portion of the library; count on the stated rates, not on these rows.
